Source: PubChem BioAssay (several laboratories)
RanGTP-Impb inh = inhibitors of RanGTP-importin-beta interaction, primary screen, biochemical, FRET, CFP-Ran, YFP-importin-beta, homogeneous; cell-free CFP-Ran/YFP-importin-beta FRET ratio; Ran GTPase (GTP-bound) - importin-beta complex; inhibition, % (concentration not given with the values); hit rate 1.1% among 300,000; AID 2216, 2009;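 active = most replicates above 15%; inconclusive = exactly half above 15%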;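 also: 0% = DMSO wells and 100% = Ran loaded with GDP instead of GTP; wells of about 40 µL received 100 nL stock; the first replicate is given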
AF4-AF9 inh = inhibitors of AF4 peptide binding to AF9, primary screen, biochemical, AlphaScreen, biotin-AF4 peptide, FLAG-AF9, single point | Protein AF-9 (Homo sapiens), P42568 | inhibition, % at 10 µM | hit rate 0.47% among 350,000 | AID 651704, 2012;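 active = every replicate reaching a set inhibition limit, whatever the replicate mean, cut at about 25% in these data; inconclusive = mean inhibition reaches that limit but some replicates miss it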;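 also: 0% = plate neutral control median and 100% = total signal loss; the record names both 10 and 1 µM as test concentration; the first replicate is given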
Vif TR-FRET = inhibitors of Vif binding to APOBEC3G peptide, primary screen, biochemical, TR-FRET, GST-Vif 1-94, biotin-A3G peptide, dose response retest (AID 1117319) | hit rate 0.57% among 260,000 | TR-FRET GST-Vif / biotin-A3G peptide binding; higher % means a stronger effect; test concentration not given here; strong numbers were not always called active | one-dose inhibition, %; IC50 in µM for titrated hits;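 active = above the screen mean plus three standard deviations and confirmed in dose response; inconclusive = results disagree or hit not tested in dose response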;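 also: Vif residues 1-94 fused to GST binding biotinylated APOBEC3G peptide 110-148; 0% = full assay without inhibitor and 100% = GST in place of GST-Vif; retest series ran down from 100 µM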
FGF22 binding = binders of human FGF22 protein, primary screen, FGF22 synaptogenesis inhibitor project, biophysical, thermal shift, single point; Fibroblast growth factor 22 (Homo sapiens), Q9HCT0; recombinant FGF22 thermal shift, SYPRO orange fluorescence; percent of sucrose octasulfate shift, DMSO zero; calls only at 9.99 µM; hit rate 1.5% among 340,000; AID 651658, 2012;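 active = melting point raised past a set limit in the mean and every replicate; inconclusive = no clear call; three in four hits are not shown here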
Target sequence (Q9HCT0 whole entry, looked up): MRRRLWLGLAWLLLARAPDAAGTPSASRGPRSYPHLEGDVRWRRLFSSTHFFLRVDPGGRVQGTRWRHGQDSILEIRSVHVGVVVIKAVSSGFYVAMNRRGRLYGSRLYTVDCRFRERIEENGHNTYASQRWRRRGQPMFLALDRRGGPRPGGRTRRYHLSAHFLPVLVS
E coli growth = E. coli growth inhibition, primary screen, OD600; Escherichia coli growth, 23 h; stronger effect = lower value; hit rate 0.21% among 330,000; OD600 absorbance (no concentration beside the values);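 active = OD600 absorbance below the run mean of sample wells minus 3.6 SD, in any replicate, cut at about 0.56 in these data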;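 also: stock transfer was 300 nL into about 60 µL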
UCH37 DUB inh = inhibitors of human UCH37 deubiquitinase, primary screen, biochemical, Ub-AMC cleavage, fluorescence | Ubiquitin carboxyl-terminal hydrolase isozyme L5 (Homo sapiens), Q9Y5K5 | purified proteasome/UCH37 | inhibition, % (test concentration not listed) | hit rate 0.33% among 330,000 | AID 588478, 2011;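 active = mean of two replicates above 20%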;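 also: 0% = compound-free wells with enzyme and 100% = wells lacking proteasome; stock transfer was 100 nL into about 20 µL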
Target sequence (Q9Y5K5 whole entry, looked up): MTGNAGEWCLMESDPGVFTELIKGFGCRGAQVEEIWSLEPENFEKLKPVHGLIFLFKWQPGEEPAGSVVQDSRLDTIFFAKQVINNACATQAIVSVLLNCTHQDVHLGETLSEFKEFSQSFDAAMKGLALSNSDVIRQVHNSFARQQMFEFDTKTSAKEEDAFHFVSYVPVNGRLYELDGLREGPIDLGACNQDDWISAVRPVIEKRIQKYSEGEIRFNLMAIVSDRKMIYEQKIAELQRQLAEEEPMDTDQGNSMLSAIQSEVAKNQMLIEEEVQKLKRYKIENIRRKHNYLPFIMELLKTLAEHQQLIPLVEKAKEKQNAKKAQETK
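Material: human UCH37 enzyme supplied as purified proteasome complex. Measure: % inhibition of Ub-AMC cleavage fluorescence. Medium: pH 7.4 Tris-HCl (50 mM) with ovalbumin, ATP-MgCl2, DTT. Times: 30 min preincubation with enzyme, 25 min cleavage at room temperature. Detection: AMC fluorescence intensity at 355/460 nm.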
HNF4A DNA FP = change in binding of human HNF4A to DNA, primary screen, biochemical, fluorescence polarization, FITC-DNA | Hepatocyte nuclear factor 4-alpha (Homo sapiens), P41235 | 1 h | activity change, % at 10 µM | hit rate 0.3% among 360,000; in the data active = activity change above about 30%, passing the limit was not always enough;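 also: controls were the assay level and a saturating level of protein; the project sought stronger binding though the title names inhibitors; some compounds called inactive have numbers as strong as hits; positive values seem to mean higher polarization but the record does not say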
Target sequence (P41235 whole entry, looked up): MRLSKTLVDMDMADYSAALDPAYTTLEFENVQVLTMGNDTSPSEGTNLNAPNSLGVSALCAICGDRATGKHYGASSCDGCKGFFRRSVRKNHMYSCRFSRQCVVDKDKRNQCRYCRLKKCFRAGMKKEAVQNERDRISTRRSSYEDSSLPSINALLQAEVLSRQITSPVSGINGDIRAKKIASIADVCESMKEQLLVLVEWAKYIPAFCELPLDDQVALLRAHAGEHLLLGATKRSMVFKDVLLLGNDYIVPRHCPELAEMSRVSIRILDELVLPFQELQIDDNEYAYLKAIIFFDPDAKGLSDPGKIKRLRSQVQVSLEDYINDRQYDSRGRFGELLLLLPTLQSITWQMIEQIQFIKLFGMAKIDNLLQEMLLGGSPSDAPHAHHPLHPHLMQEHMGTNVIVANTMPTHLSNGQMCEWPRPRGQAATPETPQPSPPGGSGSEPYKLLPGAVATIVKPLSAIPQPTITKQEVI
Active calls of the source: *; i = inactive; ? = inconclusive; · = not tested or not shown; & = joins results of further samples. A portion of the library; the hit share may differ from the screen's.

SMILES	RanGTP-Impb inh	AF4-AF9 inh	Vif TR-FRET	FGF22 binding	E coli growth	UCH37 DUB inh	HNF4A DNA FP
O=C(N/N=C/c1cc(Br)c(O)c([N+](=O)[O-])c1)C(O)(c1ccccc1)c1ccccc1	0.0	-0.1	·	i	·	·	5.3
Cc1ccc(S(=O)(=O)N2CCOC2CNC(=O)C(=O)NCCc2ccc(S(N)(=O)=O)cc2)cc1 (stereo not drawn)	2.9	0.8	13.9%	i	0.665	0.0	-1.5
CC(C)C(C(=O)NCc1ccccc1)N(C)Cc1ccc(Cl)c(Cl)c1 (stereo not drawn)	·	-1.4	·	i	·	·	3.4
CCOc1cc(NC(=S)NCCCN2CCOCC2)c(OCC)cc1NC(=O)C1CC1	-2.5	·	7.8%	·	0.713	2.3	1.0
Cc1ccc(OCC(O)CN2CCN(CC(O)COc3ccc(C)cc3)CC2)cc1 (stereo not drawn)	-1.6	·	2.0%	·	0.626	3.3	-1.9
CCc1onc(C)c1C(=O)Nc1ccc(N2CCOCC2)cc1	·	0.8	?	i	0.685	-0.5	-2.1
CC1(C)CC(N(Cc2cccs2)C(=O)c2ccco2)CCO1 (stereo not drawn)	5.4	·	1.2%	·	0.686	0.6	2.7
Cc1ccc(Cl)cc1-c1cc(C(=O)NCc2ccccc2)[nH]n1	·	-1.6	·	i	·	·	8.0
COc1ccc(-c2cc(=O)c3c(C)cc(O)cc3o2)cc1	·	-0.1	-5.7%	i	·	·	1.1
COCCNC(=O)C1CCN(C(=O)C2CC(=O)N(c3ccc(C)cc3)C2)CC1 (stereo not drawn)	-3.7	50.4*	·	i	0.653	2.2	0.5
O=C(NNC(=O)c1cc(Br)c(Br)s1)c1ccncc1	·	-3.4	·	i	0.619	7.8	1.8
c1nnn(C23CC4CC(CC(C4)C2)C3)n1	?	·	?	·	0.706	4.3	3.1
O=C(NC(=S)N1CCN(Cc2ccccc2)CC1)c1ccccc1	-4.6	·	4.4%	·	0.645	-0.9	2.3
CCOC(=O)C1=C(C)N=C2SC(C(=O)OC)=CC(=O)N2C1c1ccc(OC)cc1 (stereo not drawn)	0.8	2.8	7.8%	i	0.714	0.7	1.4
CCC(C)Sc1nc2c(cnn2-c2ccc(F)cc2)c(=O)[nH]1 (stereo not drawn)	1.6	-1.1	-0.7%	i	0.654	4.3	2.4
Cc1ccc(N2C(=O)C3C4CC(=O)C(c5ccccc54)C3C2=O)cc1C (stereo not drawn)	-2.6	·	17.6%	·	0.723	5.5	-1.6
CN(Cc1ccc2ccccc2c1)C(=O)c1ccc(C(F)(F)F)cc1	1.0	-2.7	·	i	0.64	0.3	-1.1
CCN(CC(=O)Nc1c(F)cccc1F)C(=O)c1ccc(S(=O)(=O)N2CCC(C)CC2)cc1	·	-15.3	25.2%	i	0.658	-1.7	2.5
Cc1cc(C)c(C#N)c(SCc2cc3c(cc2Cl)OCO3)n1	-3.0	3.5	-120.0%	i	0.709	1.2	-0.4
COC(=O)c1ccc(NCC(=O)c2ccccc2)cc1	1.3	·	2.9%	·	0.669	-1.4	-0.3
CN(c1ccc(C(=O)N2CCCCC2)cc1)S(=O)(=O)c1ccccc1	1.0	·	25.1%	·	0.695	1.1	5.1
N#C/C(=C\c1cccc([N+](=O)[O-])c1)c1ccccn1	6.5	6.4	-15.7%	i	0.667	1.7	2.2
COc1ccccc1C(=O)C1CCCN(C(=O)CSc2ccccn2)C1 (stereo not drawn)	3.3	-1.3	6.5%	i	0.698	-3.1	0.6
CC1CCC2(CC1)NC(=O)N(CC(=O)Nc1ccc3c(c1)CCC3)C2=O (stereo not drawn)	-2.8	-10.3	-2.9%	i	0.675	-1.2	4.3
C[C@H](CO)N1C[C@H](C)[C@@H](CN(C)S(=O)(=O)c2cn(C)cn2)Oc2c(NS(=O)(=O)c3ccccc3)cccc2C1=O	·	-2.2&-2.3	-3.3%	i	0.686	4.5	-0.7

Quoted at random: 5 entries already listed
SMILES	RanGTP-Impb inh	AF4-AF9 inh	Vif TR-FRET	FGF22 binding	E coli growth	UCH37 DUB inh	HNF4A DNA FP
CC(C)C(C(=O)NCc1ccccc1)N(C)Cc1ccc(Cl)c(Cl)c1 (stereo not drawn)	·	-1.4	·	i	·	·	3.4
CN(Cc1ccc2ccccc2c1)C(=O)c1ccc(C(F)(F)F)cc1	1.0	-2.7	·	i	0.64	0.3	-1.1
COc1ccc(-c2cc(=O)c3c(C)cc(O)cc3o2)cc1	·	-0.1	-5.7%	i	·	·	1.1
COCCNC(=O)C1CCN(C(=O)C2CC(=O)N(c3ccc(C)cc3)C2)CC1 (stereo not drawn)	-3.7	50.4*	·	i	0.653	2.2	0.5
Cc1ccc(N2C(=O)C3C4CC(=O)C(c5ccccc54)C3C2=O)cc1C (stereo not drawn)	-2.6	·	17.6%	·	0.723	5.5	-1.6

Additional records follow:
SMILES	RanGTP-Impb inh	AF4-AF9 inh	Vif TR-FRET	FGF22 binding	E coli growth	UCH37 DUB inh	HNF4A DNA FP
COCCN(C(=O)CC1C(=O)NCCN1CC(c1ccccc1)c1ccccc1)C(C)C (stereo not drawn)	?	-6.6	-7.3%	i	0.708	-0.1	0.2
CCc1cc2c(=O)n(CC)c(SC(C)C(=O)Nc3c(C)n(C)n(-c4ccccc4)c3=O)nc2s1 (stereo not drawn)	-1.3	·	1.9%&8.8%	·	0.762	1.1	0.4
CC1=C(C(=O)N(C(C)C)C(C)C)CC(CC(=O)NCCCCc2ccccc2)C(=O)N1Cc1ccc(F)cc1 (stereo not drawn)	·	-0.4	·	i	·	·	-0.5
O=C(Nc1nnc(/N=C/c2ccco2)s1)c1ccc(F)cc1	-3.8	·	?	·	·	·	0.4
CCOc1cc2[nH]c(=S)n(Cc3ccc(C(=O)N4CCN(C)CC4)cc3)c(=O)c2cc1OCC	0.6	0.8	-0.8%	i	0.685	2.5	0.7
COCc1cc(C2C(C(=O)c3ccco3)=C(O)C(=O)N2CCOCCO)ccc1O (stereo not drawn)	-1.1	·	-2.5%	·	0.695	7.0	-1.4
CCCNS(=O)(=O)c1cc2c3c(c1)C(C)C(=O)N3CCC2 (stereo not drawn)	1.1	-0.3	-1.1%	i	0.697	0.8	0.5
O=C(OCC(=O)N1CCc2ccccc21)c1ccncc1	·	2.6	-12.1%	i	0.654	0.3	0.3
COc1cc(-c2[nH]ncc2CN2CCN(Cc3cccs3)CC2)cc(OC)c1OC	-4.9	3.2	10.7%	i	0.694	1.7	-3.6
O=C1C2C3c4ccccc4C(c4ccccc43)[C@@H]2C(=O)N1c1nc(-c2ccccc2)cs1 (stereo partly drawn)	3.6	-1.7	11.1%	i	·	0.4	2.8
CCOC(=O)CNC(=O)Cc1ccc(Cl)cc1	-1.7	-8.3	-5.0%	i	0.639	5.3	-1.1
O=C(Nc1cccc(-c2nc3cccnc3s2)c1)c1ccco1	-3.2	0.1	-5.4%	i	0.69	-0.1	-0.9
COc1ccc(Cn2nc(C(=O)O)c3ccccc3c2=O)cc1F	1.3	-0.3	·	i	0.613	1.4	-2.5
CCCc1c(O)nc(SC2CC(=O)N(c3ccc(OC)cc3)C2=O)[nH]c1=O (stereo not drawn)	-3.6	-4.5	-0.5%	i	0.666	2.1	0.1
CCCCNC(=S)Nc1cccc(C(C)=O)c1	1.3	·	-0.2%	·	0.658	2.4	1.1
CC1Oc2ccccc2N(CC(=O)NC2CCCC2)C1=O (stereo not drawn)	2.8	-0.6	3.4%	i	0.671	1.4	0.4
COc1ccc(-c2nnn(CCc3nn[nH]n3)n2)cc1	-0.4	·	13.4%	·	0.709	3.3	-0.1
CCc1c(C)sc2nc(SCC(=O)Nc3cc(C)on3)n(CCOC)c(=O)c12	5.7	·	21.8%	·	0.776	2.1	-2.6
COc1ccc(C(=O)NC(=S)Nc2ccc(S(=O)(=O)Nc3cc(C)on3)cc2)cc1OC	-1.2	-4.5	4.1%	i	0.622	5.8	1.8
O=C(O)CCN1C(=O)C(=C2CCCCCC2)SC1=S	4.0	·	9.4%	·	0.73	2.7	3.5
CCC(C)c1ccccc1NC(=O)COC(=O)CCc1cc(OC)c(OC)c(OC)c1 (stereo not drawn)	1.0	·	2.9%	·	0.701	5.5	1.2
O=C(CSc1ccc2ccccc2c1)Nc1ccc(S(=O)(=O)Nc2nccs2)cc1	-0.3	·	-3.8%	·	0.704	3.0	1.4
CCOc1cccc(C=NCCc2ccc(OC)c(OC)c2)c1O	0.4	2.0	·	i	0.662	7.0	-5.4
CC(=O)c1cccc(NC(=O)CSc2ccc(-c3ccc4c(c3)OCO4)nn2)c1	-0.3	2.6	-38.3%	i	0.703	1.2	0.6
CCOC(=O)c1cc(CC)sc1NC(=O)COC(=O)c1cc[n+]([O-])cc1	-2.4	-0.6	8.9%	i	0.644	3.6	4.1
SMILES	RanGTP-Impb inh	AF4-AF9 inh	Vif TR-FRET	FGF22 binding	E coli growth	UCH37 DUB inh	HNF4A DNA FP
Cc1cc(O)c(C2(O)C(=O)Nc3cc(Br)ccc32)cc1C (stereo not drawn)	0.8	1.4	-8.9%	i	0.623	5.4	-0.7
Cc1cc(C)cc(OCC(=O)N(Cc2cccs2)C2CCS(=O)(=O)C2)c1 (stereo not drawn)	3.2	·	-2.3%	·	0.718	2.7	-0.2
COc1ccccc1C/C(N)=N/OC(=O)COc1ccc(C)cc1C	-0.6	-7.3	-11.0%	i	0.715	-1.0	-6.5
COc1cc(N2C(=O)C=CC2=O)ccc1N1C(=O)C=CC1=O	·	-4.9	>100µM*	i	·	·	-3.3
CC(OC(=O)Cc1c[nH]c2ccccc12)C(=O)N(C)c1ccccc1 (stereo not drawn)	5.8	2.0	-0.3%	i	0.642	-0.3	-0.1
O=C(CN1C(=O)/C(=C2\SC(=S)N(C3CCS(=O)(=O)C3)C2=O)c2ccccc21)Nc1ccc(F)cc1 (stereo not drawn)	-2.7	-0.4	1.2%	i	0.655	4.8	1.5
COc1ccccc1/C=N/N1C(=O)C2C3C=CC(CC3)C2C1=O (stereo not drawn)	?	2.4	3.3%	i	·	·	0.0
Cc1ccc(S(=O)(=O)CCC(=O)OCC(=O)Nc2ncc(Cl)cc2Cl)cc1	1.2	·	14.3%	·	0.704	-29.9	2.3
O=C(C1CCCCC1)N1CCCC(c2nc(-c3ccc(F)cc3)no2)C1 (stereo not drawn)	1.7	·	19.0%	·	0.693	1.4	-0.7
CC(C)c1cc(C(=O)OCC(=O)NC(=O)NCc2ccco2)c(O)c(C(C)C)c1	-2.4	-0.3	·	i	0.694	-0.6	-1.2
Cc1ccc(CNC(=O)COC(=O)C2CCN(S(=O)(=O)c3cccs3)CC2)cc1	5.7	-0.9	-1.2%	i	0.734	4.4	7.5
Cc1cccc(CNC(=O)c2cc(S(=O)(=O)N3CCOCC3)cn2C)c1	-2.2	-0.5	·	i	0.679	1.1	3.1
CC(=O)c1c(C)nn(CC(O)Cn2c3c(c4cc(C)ccc42)CCCC3=O)c1C (stereo not drawn)	·	·	-6.0%	·	0.692	-71.5	1.5
O=C(c1ccccc1)N1CN2CN(C(=O)c3ccccc3)CC([N+](=O)[O-])(C2)C1	4.0	3.4	-6.4%	i	0.701	-2.4	-0.1
O=c1c(=NNc2ccccc2Cl)c(=O)c2ccccc12	·	10.3	1.4%	i	0.636	6.7	2.6
